# KCNQ2 enhance = KCNQ2 (rat) channel potentiation; CHO-K1 KCNQ2, FluxOR thallium flux fluorescence; stronger effect = higher value; O88943; 310,000 tested, 0.54% active; B-score at 10 µM;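 active means fluorescence ratio B-score at least 3 SD of library B-scores, with initial fluorescence B-score within 3 SD, cut at about 5.3 in these data; same plate scores as AID 2156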;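 further: B-score of peak minus minimum over baseline fluorescence ratio after K+ and Tl+ stimulus; positive B-score means potentiation of KCNQ2 with more thallium influx and brighter signal; only the inactives scoring about 0 or higher are listed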
# Target sequence (O88943 whole entry, looked up): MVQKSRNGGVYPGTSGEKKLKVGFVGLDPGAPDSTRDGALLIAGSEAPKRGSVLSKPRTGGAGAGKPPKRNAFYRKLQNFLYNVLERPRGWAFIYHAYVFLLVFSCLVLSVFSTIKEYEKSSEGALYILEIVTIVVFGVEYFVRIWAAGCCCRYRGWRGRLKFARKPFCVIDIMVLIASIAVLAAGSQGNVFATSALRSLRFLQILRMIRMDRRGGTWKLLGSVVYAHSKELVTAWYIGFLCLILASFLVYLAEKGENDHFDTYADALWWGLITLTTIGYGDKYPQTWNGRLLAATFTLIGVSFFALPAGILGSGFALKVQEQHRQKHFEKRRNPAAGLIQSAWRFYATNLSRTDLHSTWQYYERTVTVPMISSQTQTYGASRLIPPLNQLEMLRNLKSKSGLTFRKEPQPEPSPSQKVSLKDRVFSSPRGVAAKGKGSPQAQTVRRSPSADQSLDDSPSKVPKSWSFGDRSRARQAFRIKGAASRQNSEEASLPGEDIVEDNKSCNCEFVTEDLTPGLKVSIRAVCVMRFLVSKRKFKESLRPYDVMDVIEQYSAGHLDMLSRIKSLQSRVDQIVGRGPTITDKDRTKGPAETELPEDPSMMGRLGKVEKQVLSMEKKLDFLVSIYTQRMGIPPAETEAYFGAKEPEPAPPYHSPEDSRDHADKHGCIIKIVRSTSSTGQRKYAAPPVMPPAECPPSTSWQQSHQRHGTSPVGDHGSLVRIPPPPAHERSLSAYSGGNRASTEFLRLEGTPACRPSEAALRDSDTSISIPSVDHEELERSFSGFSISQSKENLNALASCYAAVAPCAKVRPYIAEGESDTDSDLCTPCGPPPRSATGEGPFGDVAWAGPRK
# KCNQ2 enhance baseline = recorded beside KCNQ2 enhance, whose call it bears; B-score; compound at 10 µM; measured here: initial fluorescence intensity artifact check;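 brightness before thallium and not channel activity; 0 = typical well and far values either way flag optical interference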
# * marks the source's active call; other numbers are inactive results.
# Value order: KCNQ2 enhance	KCNQ2 enhance baseline
O=[N+]([O-])c1ccc(N/N=C\c2ccccc2OCc2ccccc2)cc1
 : 0.4	0.09
Cn1c(SCC(=O)Nc2ccc(NC(=O)c3cccs3)cc2)nnc1-c1ccncc1
 : 0.4	-0.68
Cc1cc(S(=O)(=O)N2CCCC2)ccc1OCC(=O)NCc1ccco1
 : 0.26	-0.42
Cc1ccc(C(=O)Nc2cccc(S(=O)(=O)N3CCOCC3)c2)cc1[N+](=O)[O-]
 : 0.8	-1.37
CCCN(CCC)S(=O)(=O)c1ccc(NC(=O)COc2ccccc2)cc1
 : 0.07	-0.9
CCCCN(CC)CCCNC(=S)Nc1ccc2nc(N3CCN(C)CC3)cc(C)c2c1
 : 1.26	-1.18
O=C(CSc1nnc(CNC(=O)c2cccs2)o1)Nc1ccc2c(c1)OCO2
 : 1.38	-0.45
CCCn1c(=O)c2ccccc2n2c(SCC(N)=O)nnc12
 : 1.28	-0.55
CCOc1ccc(C(=S)N2CCOCC2)cc1
 : 1.05	-1.31
CC1CCc2nn(CC(=O)NC3CCCC3)cc2C1 (configuration not stated)
 : 0.54	2.25
O=C(CSc1nnc2ccccn12)NNC(=O)c1ccccc1
 : 0.81	-0.46
O=C(O)c1ccc(N/N=C2/CCSc3ccc(F)cc32)cc1
 : 0.59	-4.08
CCOc1ccc(-n2nnnc2SCC(=O)Nc2ccc(NC(C)=O)cc2)cc1
 : 0.48	-0.02
CCOC(=O)C1Nc2ccc(OC(F)(F)F)cc2C2C=CCC12 (configuration not stated)
 : 0.02	-0.95
COc1ccc(-c2cc(-c3ccc(N)cc3)nc(N)c2C#N)cc1OC
 : 1.08	0.4
CCCN(CCC)CCCNC(=O)C1CCN(S(=O)(=O)c2cccc3nsnc23)CC1
 : 0.24	0.79
Cc1csc(NC(=O)C2CCN(S(=O)(=O)c3ccccc3F)CC2)n1
 : 1.88	0.52
CC(C)(CNC(=O)c1ccccc1NS(C)(=O)=O)N1CCCCC1
 : 3.52	-0.39
O=C(Nc1ccc(Br)cn1)c1ccc2nccnc2c1
 : 0.09	-0.07
Cc1ccc(C(=O)NCCSC(C)(C)C)cc1
 : 0.04	-0.78
O=C(NCCc1ccccc1F)C1CCC(=O)N(CCCN2CCCC2=O)C1 (configuration not stated)
 : 0.89	-0.26
COc1cccc(-c2c(C(=O)N/N=C/c3ccco3)nnn2-c2nonc2N)c1
 : 0.54	0.75
CCS(=O)(=O)N1CCN=C1SCc1ccccc1
 : 0.7	-1.98
CCOc1ccccc1NC(=O)CCn1ccnc1
 : 0.03	2.31
Cc1ccc(OCCNc2ccc(C(F)(F)F)cc2[N+](=O)[O-])cc1
 : 0.84	0.47
N=c1c(C(=O)NC2CCCCC2)cc2c(=O)n3ccccc3nc2n1Cc1ccco1
 : 2.28	0.01
C/C(=N\Nc1ccc2nncn2n1)c1ccc(Cl)s1
 : 0.38	0.75
CSc1cccc(NC(=O)C(C)Sc2ccc(C)cc2)c1 (configuration not stated)
 : 2.76	-2.58
O=C(CCC1CCCCC1)Nc1cccc(C(=O)Nc2ccc(C(=O)O)cc2)c1
 : 2.92	-2.32
CC(=O)NCCC1CCN(c2nc3nonc3nc2N(C)Cc2ccccc2)CC1
 : 1.07	0.18

# Two successive entries out of the list so far:
# Value order: KCNQ2 enhance	KCNQ2 enhance baseline
O=C(CCC1CCCCC1)Nc1cccc(C(=O)Nc2ccc(C(=O)O)cc2)c1
 : 2.92	-2.32
CC(=O)NCCC1CCN(c2nc3nonc3nc2N(C)Cc2ccccc2)CC1
 : 1.07	0.18

# Other structures.
# Value order: KCNQ2 enhance	KCNQ2 enhance baseline
O=C(Nc1ccccc1O)c1cccc(S(=O)(=O)N2CCOCC2)c1
 : 0.21	1.12
Cc1[nH]c(=O)[nH]c(=O)c1CSc1nnc([C@@H](NC(=O)OC(C)(C)C)C(C)C)o1
 : 1.62	-1.18
CN(C)c1ccc(P(=O)(OCc2ccccc2)C(O)c2ccncc2)cc1 (configuration not stated)
 : 0.33	2.59
O=C(CSC1=NCCS1)NC1CCCCC1
 : 0.65	-2.61
CCc1c(C#N)c(=O)[nH]c(=O)n1-c1ccccc1
 : 0.91	3.3
COc1ccccc1C(=O)Nc1c2c(nn1-c1cccc(C)c1C)CS(=O)C2 (configuration not stated)
 : 0.57	2.12
CCN(CC)CC(O)Cn1c(-c2cccc(Cl)c2)nc2cc(C)c(C)cc21 (configuration not stated)
 : 0.32	-0.67
CCOC(=O)Cc1cnc(NC(=O)CSc2nc(C)c(CC)c(=O)[nH]2)s1
 : 1.64	-1.13
Nc1c(Cl)cc(Cl)cc1C(=O)OCC(=O)N1CCCC1=O
 : 1.02	0.89
CC(=O)c1cccc(NC(=O)COc2ccc(S(=O)(=O)N3CCCCC3)cc2)c1
 : 0.67	0.21
CC(=O)Nc1ccc(SCC(=O)N2CCN(S(=O)(=O)c3ccccc3)CC2)cc1
 : 2.74	0.79
CCOC(=O)C1=NN(C(C)=O)C2(CC(=O)N(c3ccc(C)c(C)c3)C2=O)C1 (configuration not stated)
 : 0.11	-0.11
O=S(=O)(N/N=C\C=C\c1ccccc1)c1ccccc1
 : 1.14	0.96
CCOc1ccc(Br)cc1S(=O)(=O)Nc1ncn[nH]1
 : 0.66	-2.26
COc1ccc(-n2nnnc2SCc2nc(N)nc(N3CCOCC3)n2)cc1
 : 1.57	0.02
CCCCn1cnc2c(sc3nc4c(cc32)CSC(C)(C)C4)c1=O
 : 0.18	-0.02
COc1ccc(N(C(=O)c2ccn[nH]2)C(C(=O)NC(C)(C)C)c2ccc(F)cc2)cc1 (configuration not stated)
 : 1.4	-1.63
Cc1ccc(C(=O)CSc2nn3c(=O)c(C(C)(C)C)nnc3s2)cc1
 : 0.39	-0.14
Cn1c(=O)[nH]c(=O)c2c1nc(SCC(O)CO)n2CCCc1ccccc1 (configuration not stated)
 : 2.09	-0.14
Cc1nc(NC(=O)C2CCCCC2)sc1C
 : 2.94	-2.02
CC(=O)CCc1ccc(OCCCCn2cncn2)cc1
 : 0.49	0.48
Clc1cccc(CN2CCCCCC2)c1
 : 0.44	0
CC(C)c1ccccc1-n1cc[nH]c1=S
 : 0.59	-0.45
COc1ccc(/C(O)=C2/C(=O)C(=O)N(CCCN3CCOCC3)C2c2ccc(N(C)C)cc2)cc1 (configuration not stated)
 : 1.06	-0.55
CCCNC(=O)CC(NS(=O)(=O)c1ccc(NC(C)=O)cc1)C(C)C (configuration not stated)
 : 0.87	-0.05
Cc1ccc(-n2nc(C)c3c2OC(N)=C(C#N)C3c2cccs2)cc1 (configuration not stated)
 : 0.29	-1.11
N#Cc1c(-c2ccccc2)cc(-c2ccccc2)nc1SCCC(=O)O
 : 0.26	-1.46
C#C[C@]1(O)CCC2C3CCC4=Cc5oncc5CC4(C)C3CCC21C (some centres not stated)
 : 0.41	-1.58
Cc1cc(S(=O)(=O)NC2CCCCC2)ccc1-n1cnnn1
 : 1.94	-1.48
Cc1cccc(NC(=O)c2cc3c([nH]c4ccccc43)c(C)n2)c1C
 : 0.02	-0.07

# (list continues)
SMILES	KCNQ2 enhance	KCNQ2 enhance baseline
CC(C)=C1C(=O)NN(c2ccc(C)c(Cl)c2)C1=O	1.26	-0.1
COc1ccc(-c2cc(=O)oc3c(C)c(O)ccc23)cc1	0.09	0.84
CCSc1nnc(N2C(=O)CC(c3ccsc3)C3=C2CC(C)(C)CC3=O)s1 (configuration not stated)	1.51	0.46
O=C(NCc1ccccc1Cl)c1cnccc1C(F)(F)F	7.42*	-0.53*
C/C(=N\NC(=O)COc1ccc(C#N)cc1)c1ccc(N2CCOCC2)cc1	0.74	0.9
CC(=O)Nc1ccc(S(=O)(=O)Nc2nc3nc(-c4ccccc4)cc(-c4ccccc4)n3n2)cc1	0.08	-2.61
CCC(=O)Nc1cccc(NC(=O)CSc2nnnn2C2CCCC2)c1	0.01	-0.06
COc1ccc2nc3oc(C(=O)Nc4ccc(OC)c(OC)c4)cc3cc2c1	1.35	0.22
NC(=O)c1ccc(NC(=O)CN2C(=O)NC(c3ccccc3)(c3ccccc3)C2=O)cc1	0.66	0.71
Cc1nn(C)c(C)c1NC(=O)CC12CC3CC(CC(C3)C1)C2	4.93	0.88
CCCc1cc(=O)oc2cc(C)cc(OCC(=O)O)c12	1.51	-1.73
COc1cc(O)c(C(CC(=O)N2CCN(c3ccccc3)CC2)c2cc(OC)c(OC)c(OC)c2)c(OC)c1 (configuration not stated)	1.51	-0.09
CCOc1ccc(NC(=O)CC2C(=O)N(c3cccc(OC)c3)C(=O)N2CCOC)cc1 (configuration not stated)	0.52	-2.62
CCCCc1nc(SCC(=O)N2CCCC2)c2c(=O)n(C)c(=O)n(C)c2n1	8.17*	-0.24*
NC(=O)c1cccnc1Oc1cccc(Cl)c1	1.65	1.7
COc1ccccc1NC(=S)NNC(=O)c1nn(C)c(C)c1Br	0.1	-0.38
CCOC(=O)C1=C(COC(=O)/C=C/c2ccco2)NC(=O)NC1C (configuration not stated)	1.37	0.1
Cc1cc(C)c(C#N)c(SCc2c(F)cccc2[N+](=O)[O-])n1	0.16	0.8
CC1CCCCC1NC(=S)Nc1ccc(SC(F)F)cc1 (configuration not stated)	1.2	-1.13
COc1ccc(S(=O)(=O)N2CCCCCC2)cc1Br	0.94	-1.47
CC(NCC(O)COc1ccc(Br)cc1)c1ccccc1 (configuration not stated)	0.32	-0.5
Cc1cc(OCc2cc(C(=O)N(C)C3CCOC3)no2)cc(C)c1Cl (configuration not stated)	1.01	-1.88
COc1ccc(-c2c(C(=O)O)nc3ccccc3c2C(=O)O)cc1	0.82	0.93
CC(C)NC(=O)NC(=O)COc1c(F)c(F)cc(F)c1F	0.6	-0.25
O=C(NNc1nc2ccccc2s1)Nc1ccc(Cl)c(Cl)c1	1.56	-0.12
CC1CCCN(C(=O)Cn2nnc(-c3ccc(F)cc3)n2)C1 (configuration not stated)	0.2	0.09
CC(C)OCCCN1CC(=O)N2[C@@H](Cc3c([nH]c4ccccc34)C2(C)C)C1=O	0.73	-0.02
O=C(CSc1ncccc1-c1nc2ccccc2[nH]1)NCc1ccco1	1.76	0.82
O=C(CCC(=O)N1CCN(S(=O)(=O)c2ccc(Cl)cc2)CC1)NCc1ccccc1	0.21	0.34
C[C@]12CC[C@@H]3c4ccc(O)cc4CC[C@H]3[C@@H]1C[C@@H](O)[C@@H]2O	0.52	-0.46

# Gathered by group: the compounds so far containing fluorine (11)
SMILES	KCNQ2 enhance	KCNQ2 enhance baseline
O=C(O)c1ccc(N/N=C2/CCSc3ccc(F)cc32)cc1	0.59	-4.08
CCOC(=O)C1Nc2ccc(OC(F)(F)F)cc2C2C=CCC12 (configuration not stated)	0.02	-0.95
Cc1csc(NC(=O)C2CCN(S(=O)(=O)c3ccccc3F)CC2)n1	1.88	0.52
O=C(NCCc1ccccc1F)C1CCC(=O)N(CCCN2CCCC2=O)C1 (configuration not stated)	0.89	-0.26
Cc1ccc(OCCNc2ccc(C(F)(F)F)cc2[N+](=O)[O-])cc1	0.84	0.47
COc1ccc(N(C(=O)c2ccn[nH]2)C(C(=O)NC(C)(C)C)c2ccc(F)cc2)cc1 (configuration not stated)	1.4	-1.63
O=C(NCc1ccccc1Cl)c1cnccc1C(F)(F)F	7.42*	-0.53*
Cc1cc(C)c(C#N)c(SCc2c(F)cccc2[N+](=O)[O-])n1	0.16	0.8
CC1CCCCC1NC(=S)Nc1ccc(SC(F)F)cc1 (configuration not stated)	1.2	-1.13
CC(C)NC(=O)NC(=O)COc1c(F)c(F)cc(F)c1F	0.6	-0.25
CC1CCCN(C(=O)Cn2nnc(-c3ccc(F)cc3)n2)C1 (configuration not stated)	0.2	0.09

# Remaining list, next part:
SMILES	KCNQ2 enhance	KCNQ2 enhance baseline
CCN(CC)S(=O)(=O)c1cccc(NC(=O)c2ccc(-n3nc(C)cc3C)cc2)c1	1.27	0.33
Cc1cccc(-c2nc3c(c(SCC(=O)N4CCOCC4)n2)Cc2c(CO)cnc(C)c2O3)c1	0.7	0.57
O=C(COC(=O)/C=C/c1ccccc1Cl)NC(=O)Cc1ccccc1	0.13	0.27
O=C(COC(=O)C1CCC(=O)N1)Nc1ccccc1Br (configuration not stated)	0.74	0.49
CC(/C=N/n1cnnc1)=C\c1ccco1	0.23	-0.06
O=C(CCl)Nc1ccccc1C(=O)Nc1ccc2c(c1)OCO2	0.75	-0.17
O=C(NCc1ccccc1)C1CCCN1S(=O)(=O)c1cccc2cccnc12 (configuration not stated)	0.25	-0.88
O=C(c1ccc(S(=O)(=O)N2CCCC2)cc1)N1CCCC(C(F)(F)F)C1 (configuration not stated)	0.19	0.64
COc1ccc(CCNC(=O)c2cc3c(=O)n4cccc(C)c4nc3n(CCCN3CCOCC3)c2=N)cc1	2.6	-1.05
CCOC(=O)CN1C2=NCCN2c2ccccc21	0.23	0.61
COc1cc2c3nnc(-c4ccc(F)cc4)c-3cn(Cc3cccc(F)c3)c2cc1OC	1.07	-1.14
CCCCN(CCCC)C(=O)c1nsnc1-c1ccccc1O	0.31	0.12
O=C(NC(=S)N1CCN(c2ccc([N+](=O)[O-])cc2)CC1)c1ccc(F)cc1	1.11	0.38
Cc1cc(=O)n2[nH]c(SCc3ccc(Cl)cc3)nc2n1	0.07	0.19
CCOC(=O)C(=Cc1ccc(-n2cncn2)cc1)C(=O)OCC	2.1	-1.36
Cc1ccc(OCCCC(=O)N2CCOCC2)c(C)c1	0.93	0.2
O=C(O)C(C/C(=N/O)c1ccc(Br)cc1)P(=O)(c1ccccc1)c1ccccc1 (configuration not stated)	1.8	-0.45
CC(=C/c1ccc(C(C)C)cc1)/C=N/NC(=O)Cn1nc(C)cc1C	2.4	0.09
Cc1ccc(C(=O)COC(=O)CCN2C(=O)C3C4CCC(C4)C3C2=O)cc1[N+](=O)[O-] (configuration not stated)	0.05	1.35
O=CNCC(=O)NC1CCCCCC1	2.07	-0.12
CC1CCCCC1NC(=O)/C(C#N)=C/c1ccc(F)c(F)c1 (configuration not stated)	0.13	-0.51
Fc1cccc(NC(=S)N2CCCCC2)c1	0.58	-1.14
O=C(NNC(=S)Nc1ccccc1)c1cccs1	1.21	-0.3

# Screens as filed in PubChem BioAssay.

# Only part of the results is shown; the hit share may differ from the screen's.
